AID504770: growth inhibitors of E. coli YBA685 in a screen for V. cholerae RctB (chromosome II replication) inhibitors | hit rate 0.27% among 130,000 | E. coli YBA685 rctB-dependent plasmid, OD600 growth, 3 h; stronger effect = lower value | z-score (no concentration beside the values);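 active means z-score under -2 on both plates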;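 further: wells of about 30 µL received 100 nL stock; score is relative to mean and SD of the test wells; the first replicate is given; strong numbers were not always called active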
Ba CapD inh: CapD enzyme inhibition | hit rate 0.23% among 140,000 | AID 492967 | z-score (concentration not given with the values) | purified CapD enzyme, fluorescence intensity read-out; stronger effect = lower value; some hits fall short of the stated cut;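 active means z-score under -4 in either of two replicates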;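 further: stock transfer was 100 nL into about 40 µL; score is relative to mean and spread of the plate; one replicate is shown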
Active calls of the source: *; x = no result given. An excerpt (hit frequency here may not be typical).

SMILES	AID504770	Ba CapD inh
Nc1csc2cc(C(F)(F)F)cc(Cl)c12	x	-0.71
COc1ccc(OC)c(C2NC(=O)NC(C)=C2C(=O)OCCCBr)c1 (centres undefined)	x	0.72
CN(CCc1ccccn1)C(=O)c1sc2ccccc2c1Cl	-0.2	0.62
c1ccc2c(c1)CCN2Cn1nnc2ccccc21	0.15	0.39
CCOC(=O)c1c(Cc2cccc(C)c2)c[nH]c1-c1ccccc1	-1.9	15
O=C(Nc1ccc(C(F)(F)F)cc1)c1ccc2c(c1)CCO2	0.25	-0.35
O=C1CCCC2=C1C(c1cccs1)C1=C(N2)c2ccccc2C1=O (centres undefined)	x	0.97
COc1ccc(NC(c2c[nH]c3ccccc23)P2(=S)OCC(C)(C)CO2)cc1 (centres undefined)	-0.6	-1.1
CN(C)c1ccc(/C=C2/C=C(c3ccccc3)OC2=O)cc1	1.2	0.23
Cc1cc(N)ccn1	1.3	x
c1ccc2[nH]c(CN3CCOCC3)nc2c1	-0.35	7.7
COc1nc(C)ccc1-c1noc(-c2ccc(C)cc2)n1	-0.05	1.2
CCN(CC)C(=O)C(=O)c1cccn1-c1c(C(=O)OC)sc2ccccc12	x	-0.58
N#Cc1cc(C#N)c(SCc2ccc(Cl)cc2)nc1N	-0.3	11
Cc1ccc(CCN2CC(C(=O)NC3CCCCC3)CC2=O)cc1 (centres undefined)	0.8	0.14
Cc1ccc2c(c1)C(c1ccccc1)=NCC(=O)N2C	1.8	0.23
O=C(Nc1ccc(F)c(F)c1)c1cnc(-c2ccccc2)nc1-c1ccccc1	x	-0.21
CC1CC(Sc2nnc(-c3cccs3)n2C2CC2)C(=O)O1 (centres undefined)	-0.7	x
COc1cc(C#N)ccc1OC(=O)Cc1coc2ccc3ccccc3c12	0.65	x
CC(C)C(CC(=O)O)NS(=O)(=O)c1ccc(F)cc1 (centres undefined)	0.45	0.62
O=C(Nc1ccc(I)cc1)c1cnccn1	x	0.52
Cc1cc(C)nc(NS(=O)(=O)c2ccc(NC(=O)c3cccc4ccccc34)cc2)n1	x	0.33
CC(C)c1ccc(NC(=O)CSc2n[nH]c(=O)n2C(C)c2ccccc2)cc1 (centres undefined)	0.85	-0.54
Cc1nccn1Cc1ccc(Cl)nc1	1.2	0.29
Cc1ccc(N2CCN(CC(O)Cn3c4ccccc4c4ccccc43)CC2)cc1 (centres undefined)	x	0.83
O=C(c1ccco1)N(CCSCc1cc2cccc3c2n(c1=O)CCC3)Cc1ccccn1	x	-0.06
O=C(CSc1ccccc1C(=O)Nc1ccnn1Cc1cccs1)NCc1ccco1	-1.1	x
Cc1ccc(S(=O)(=O)NCC(=O)O)c2nsnc12	x	-0.13
CC(C)(C)OC(=O)N1CCN(CCNC(=O)c2ccccc2)CC1	0.5	0.36
O=C1CC(Sc2ncn[nH]2)C(=O)N1c1ccc(-c2ccccc2)cc1 (centres undefined)	x	-0.39

Some of these compounds in order of formula weight, lowest first.
SMILES	AID504770	Ba CapD inh
Cc1cc(N)ccn1	1.3	x
Cc1nccn1Cc1ccc(Cl)nc1	1.2	0.29
c1ccc2[nH]c(CN3CCOCC3)nc2c1	-0.35	7.7
Cc1ccc2c(c1)C(c1ccccc1)=NCC(=O)N2C	1.8	0.23
COc1nc(C)ccc1-c1noc(-c2ccc(C)cc2)n1	-0.05	1.2
Cc1ccc(S(=O)(=O)NCC(=O)O)c2nsnc12	x	-0.13
CC(C)C(CC(=O)O)NS(=O)(=O)c1ccc(F)cc1 (centres undefined)	0.45	0.62
N#Cc1cc(C#N)c(SCc2ccc(Cl)cc2)nc1N	-0.3	11
CC1CC(Sc2nnc(-c3cccs3)n2C2CC2)C(=O)O1 (centres undefined)	-0.7	x
Cc1ccc(CCN2CC(C(=O)NC3CCCCC3)CC2=O)cc1 (centres undefined)	0.8	0.14
CC(C)(C)OC(=O)N1CCN(CCNC(=O)c2ccccc2)CC1	0.5	0.36
COc1cc(C#N)ccc1OC(=O)Cc1coc2ccc3ccccc3c12	0.65	x
CCN(CC)C(=O)C(=O)c1cccn1-c1c(C(=O)OC)sc2ccccc12	x	-0.58
O=C(Nc1ccc(F)c(F)c1)c1cnc(-c2ccccc2)nc1-c1ccccc1	x	-0.21
CC(C)c1ccc(NC(=O)CSc2n[nH]c(=O)n2C(C)c2ccccc2)cc1 (centres undefined)	0.85	-0.54
Cc1ccc(N2CCN(CC(O)Cn3c4ccccc4c4ccccc43)CC2)cc1 (centres undefined)	x	0.83
O=C(CSc1ccccc1C(=O)Nc1ccnn1Cc1cccs1)NCc1ccco1	-1.1	x
O=C(c1ccco1)N(CCSCc1cc2cccc3c2n(c1=O)CCC3)Cc1ccccn1	x	-0.06

Next part:
SMILES	AID504770	Ba CapD inh
COc1ccc(CC(=O)Cn2c(SCc3ccc(F)cc3)nc3ccncc32)c(OC)c1	0.05	-0.045
COc1ccc(/C=c2\sc3nc(-c4ccccc4)c(-c4ccccc4)n3c2=O)c(OC)c1OC	x	0.065
CCOC(=O)c1sc(SC#N)c(-c2ccccc2)c1N	-0.35	1.6
O=C(CSc1ncn[nH]1)c1cccc(C(F)(F)F)c1	0.25	x
Cc1nc2ccccc2c2nc(N)nn12	-1.3	x
Cc1ccc(C)c(S(=O)(=O)c2nnn3c2nc(NCCC(C)C)c2ccccc23)c1	-1.9	0.025
CC(=O)N1CCc2ccc(NC3CCN(Cc4ccccc4)CC3)cc21	x	0.22
CCCCC#CCCOC(=O)NC(Cc1c[nH]c2ccccc12)C(=O)OCc1ccccc1 (centres undefined)	x	-0.37
Cc1ccc(S(=O)(=O)N2CCN(S(=O)(=O)c3cccs3)CC2)cc1	0.05	-0.025
Clc1ccc(C(Cn2ccnc2)OCc2c(Cl)cccc2Cl)c(Cl)c1 (centres undefined)	x	-1.5
COc1ccc(C2CC(c3cccs3)=NN2C(=O)CSc2nnc(CNC(=O)c3ccccc3F)n2C)cc1 (centres undefined)	x	10
O=C(OCCN1C(=O)c2ccccc2C1=O)c1c2c(nc3ccccc13)CCC2	0.25	x
COC1OC(C)C(OCc2ccccc2)C(O)C1O (centres undefined)	0.5	0.45
CC(C)Cc1nc2ccc(N)cc2[nH]1	-0.85	x
Cc1ccc(-c2n[nH]c(=S)c3ccccc23)cc1S(=O)(=O)NCc1cccnc1	-0.6	-0.43
O=C(Nc1ccccc1C(=O)NC1CCS(=O)(=O)C1)C1=CSCCO1 (centres undefined)	1.2	1.6
CCN(c1ccccc1)c1ncnc(N)n1	-0.8	-0.27
O=C1C2CCCC1C(c1ccc3c(c1)OCO3)NC2c1ccc2c(c1)OCO2 (centres undefined)	-0.05	x
COc1ccc(CCNC(=O)COc2nsnc2N2CCOCC2)cc1OC	0.25	1.6
CN(C)c1cc(C(=O)N2CCN(C(=O)c3c(F)cccc3F)CC2)nc(N(C)C)n1	x	-0.3
c1csc(Nc2nc3cc4c(cc3s2)OCO4)n1	-0.2	-2.2
COc1ccc2nc(N(CCN(C)C)C(=O)C3CCCCC3)sc2c1	-0.65	-2.8
Cc1cc(C)nc(OC(Cc2ccc3ccccc3n2)c2ccc(C(F)(F)F)cc2)n1 (centres undefined)	x	-0.47
COC(=O)C1=C(CSc2nc(C)cc(C)n2)NC(=O)NC1c1ccc(F)cc1 (centres undefined)	-0.65	x
COC(=O)c1ccsc1N1C(=O)C=C(C)C1=O	-0.3	-1.2
COc1cc(-c2nc3ccccc3c(=O)n2NCc2cccc([N+](=O)[O-])c2O)cc(OC)c1OC	x	0.38
Cc1cccc(C(=O)N(CC#N)CC#N)c1	-0.4	0.33
COC(=O)c1ccc(NS(=O)(=O)c2cccc3c2C(=O)c2ccccc2C3=O)cc1	x	-0.83
Cc1ccc(NC(=O)Nc2c(C)noc2-c2cccs2)cc1	0.05	0.31
CCN(CC)C(=O)c1ccc(C(=O)c2ccccc2)o1	-0.8	-0.55
CCN(CC)C1N(C(=O)c2ccccc2)N=C2c3ccccc3S(=O)(=O)N21 (centres undefined)	x	-0.43
COc1ccc(C2=NN(C(=O)COc3ccc(-c4nnco4)cc3)C(c3ccco3)C2)cc1 (centres undefined)	2.7	x
CCOc1cc(/C=c2/sc3nc4cc(C)c(C)cc4n3c2=O)ccc1OCc1ccc(Cl)cc1Cl	x	-0.07
CCCCN(Cc1ccccc1)C(=O)CN1C(=O)C2C3C=CC(C3)C2C1=O (centres undefined)	0.4	0.2
COC(=O)c1sc(C(F)(F)F)c(-c2ccccc2)c1S(=O)(=O)N(C)C	1.5	-0.4
CC(=O)N1CCOc2cc(S(=O)(=O)NCCN(C)C)c(Cl)cc21	1.9	-0.12
NC(=O)n1c(CCC(=O)O)nc2sc3c(c2c1=O)CCC3	0	x
N#Cc1ccc(-c2ccccc2)nc1Sc1ccc(Br)cc1	x	-0.56
c1ccc2c3c([nH]c2c1)-c1nonc1CC3	-0.65	x
O=C(CCCc1nc2ccccc2c(=O)[nH]1)Nc1ccccc1N1CCOCC1	0.65	x
CC1CCN(C(=O)c2cc(N(C)S(=O)(=O)c3ccccc3)ccn2)CC1	0.65	-0.22
Cc1cc(-c2cc(N)n(-c3ccccc3)n2)c(C)n1C1CCCC1	2.6	-2.3
O=C(OCc1nc2ccccc2s1)c1coc2ccccc2c1=O	-1.2	-0.075
CCOC(=O)C1C(=O)NC(SCC(=O)Nc2ccc(C)c(C)c2)=C(C#N)C1c1ccccc1OC (centres undefined)	x	-0.63
COC(=O)c1c(-c2c(Cl)cccc2Cl)noc1NC(=O)N(C)C	0.4	0.54

An excerpt of these results, comma-delimited.
canonical_smiles,AID504770,Ba CapD inh
CC1CCN(C(=O)c2cc(N(C)S(=O)(=O)c3ccccc3)ccn2)CC1,0.65,-0.22
CCN(CC)C1N(C(=O)c2ccccc2)N=C2c3ccccc3S(=O)(=O)N21 (centres undefined),x,-0.43

Other compounds follow.
SMILES	AID504770	Ba CapD inh
CCn1c(SCC(=O)NC(C)C)nnc1-c1ccco1	0.1	x
COc1ccc2[nH]c(=O)c(CN(Cc3ccco3)C(c3nnnn3Cc3ccccc3)C(C)C)cc2c1 (centres undefined)	0.2	x
Cc1nc2ccc(N3NOC=C3O)cc2s1	-0.75	-0.38
N#Cc1ccc(N2CCCC2)c(C#N)c1Cl	-1.6	-0.18
O=C1C2CCC1C(N1CCCC1)CC2 (centres undefined)	-0.05	-1.3
Cc1nc2sccn2c(=O)c1S(=O)(=O)Nc1ccccc1	0.25	-2.1
COc1nc(NCc2ccccc2)nc(NCc2cccnc2)n1	x	0.075
Cc1ccc2cc(CCNC(=O)C3CCCCC3)c(=O)[nH]c2c1C	-0.05	0.65
CN(C)c1ccc(/C=C/CN2CCC(O)CC2)cc1	0.15	7.7
CCCCNC(=O)C1CCN(S(=O)(=O)CC)CC1	1.8	0.2
COc1ccc(Cc2nc3ccccc3[nH]2)cc1	-0.75	-0.37
COC(=O)c1coc(-c2ccccc2)n1	-0.35	1.4
O=C(c1nc2ccccc2[nH]1)N1CCOCC1	-0.35	0.33
Cc1cc(NC(=O)C(C)SCC(=O)O)no1 (centres undefined)	0	x
COc1ccc(C2NS(=O)(=O)N=C2N)cc1 (centres undefined)	-0.4	-0.12
CCOC(=O)/C(C#N)=C/c1cc(C(=O)OCC)c(N)s1	1.8	x
Cc1[nH]c2ccccc2c1C1=CCN(S(=O)(=O)c2cccc3nsnc23)CC1	-0.45	-0.48
N#Cc1ccc(/C=N/NC(=S)Nc2ccc(S(=O)(=O)N3CCOCC3)cc2)cc1	0.95	x
O=C(OCCc1c(F)cccc1Cl)N1CCN(c2ccc(C(F)(F)F)cn2)CC1	x	2.1
COc1ccc(/C=C2/SC(=S)N(CC(=O)NCc3ccccc3)C2=O)cc1	-0.65	-0.3
CNc1cc(S(=O)(=O)O)c2nc(C)cc3c2c1C(=O)c1ccccc1-3	x	0.31
Cc1ccc(-c2csc(=Nc3ccccc3)n2CCCN(C)C)cc1	-1.2	-0.12
CC1CC(C)CN(C(=O)NC2(C(F)(F)F)Oc3ccc(Cl)cc3O2)C1 (centres undefined)	-0.1	-0.06
C(=Nc1ccc2ccccc2c1)Nc1ccc2ccccc2c1	1.9	5.6
Clc1cccc(-c2nnc(-c3ccno3)o2)c1	-1.1	0.07
COC(=O)c1sc(-c2ccccc2)cc1NC(=O)C1COc2ccccc2O1 (centres undefined)	0.95	0.68
COc1ccccc1CC(CC(=O)O)C(=O)O (centres undefined)	-0.2	-0.4
Cc1cc(SC#N)ccc1N	-0.6	x
Cc1[nH]nc(-c2ccc(S(=O)(=O)NCCCN3CCCC3)s2)c1C	-0.8	1.2
CCOc1ccc2c(-c3ccccc3)cc(=O)oc2c1C	0.35	1.1
CCN(C(=O)CCc1nnc2ccc(NCc3ccccc3)nn12)c1ccccc1	-0.55	1.1
COc1ccc(OC)c(-c2[nH]nc3c2C(c2cn[nH]c2-c2ccc(F)cc2)C(C#N)=C(N)O3)c1 (centres undefined)	x	3.9
CC(C)CCNC(=O)c1ccc(CS(=O)(=O)c2ccc(Br)cc2)o1	2.3	0.67
COc1ccc(N2CCN(c3ccccn3)CC2)cc1	-0.35	x
COC(=O)CC(CC(=O)OC)=NNc1ncc(C(F)(F)F)cc1Cl	x	-0.06
C/C=C\C(=O)NCc1ccc2c(c1)cc(C)n2C	0.65	-0.33
O=C(NCc1ccc(-c2csnn2)cc1)OCC1CCCCN1Cc1ccc(Cl)c([N+](=O)[O-])c1 (centres undefined)	x	-0.54
CCOC(=O)c1c(-c2ccccc2)oc2c1cc(OC(=O)c1cccc(C)c1)c1ccccc12	x	0.085
CC1Cc2ccccc2N1C(=O)CSc1nnc(-c2ccccc2)o1 (centres undefined)	0.1	x
O=C(O)c1ccc(S(=O)(=O)Nc2ccc3oc(=O)sc3c2)cc1	-1.5	-3.1
CCN(CC)c1ccc2cc(-c3nnc(Nc4cc([N+](=O)[O-])ccc4F)s3)c(=O)oc2c1	x	0.01
COc1cc(OC)cc(C(=O)Nc2cc(C(=O)NCCC3=CCCCC3)ccc2N2CC3CC(C2)c2cccc(=O)n2C3)c1 (centres undefined)	x	0.26
Cc1cccc(C)c1NC(=O)C1(N(Cc2ccccc2)C(=O)COc2ccc(Cl)cc2Cl)CCC(C(C)(C)C)CC1 (centres undefined)	x	0.61
O=C1c2ccc(C34CC5CC(CC(C5)C3)C4)cc2C(=O)N1CCN1CCOCC1	0.75	-0.03
COc1ccc(NC(N)=S)cc1	x	0.12
